Screens: PubChem, several laboratories
RGS16-Gao HTS – modulators of RGS16 binding to Galphao, primary screen, biochemical, human proteins, multiplexed bead flow cytometry | AID 1441, 2008 | Regulator of G-protein signaling 16 (Homo sapiens) + Guanine nucleotide-binding protein … | binding response (% of control), % at 10 µM | bead-based flow cytometry RGS16-Galphao binding, fluorescence; actives lie on both sides | 0.38% of 220,000 active;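 active = below 25% or above 175%, edge rows of some plates excepted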;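 note: Galphao activated by GDP with aluminum fluoride before binding; 100% = wells without compound and 0% = beads without RGS; some results beyond the cut were filed as inactive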
Target sequence (O15492 whole entry, looked up): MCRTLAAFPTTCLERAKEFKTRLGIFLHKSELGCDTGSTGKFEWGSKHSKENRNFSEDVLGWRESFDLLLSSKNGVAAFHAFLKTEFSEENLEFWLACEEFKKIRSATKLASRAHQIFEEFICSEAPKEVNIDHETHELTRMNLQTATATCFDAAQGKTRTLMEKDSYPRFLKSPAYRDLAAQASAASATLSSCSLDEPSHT
Target sequence (P09471 whole entry, looked up): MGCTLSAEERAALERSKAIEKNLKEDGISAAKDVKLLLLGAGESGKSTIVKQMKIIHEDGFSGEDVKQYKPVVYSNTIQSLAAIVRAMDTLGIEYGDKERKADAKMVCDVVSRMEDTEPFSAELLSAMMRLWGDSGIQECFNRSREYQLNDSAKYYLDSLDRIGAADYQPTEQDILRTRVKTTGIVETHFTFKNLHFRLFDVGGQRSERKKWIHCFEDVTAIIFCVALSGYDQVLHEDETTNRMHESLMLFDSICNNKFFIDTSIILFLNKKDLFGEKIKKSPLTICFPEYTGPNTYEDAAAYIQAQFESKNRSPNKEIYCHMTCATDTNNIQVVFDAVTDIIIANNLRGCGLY
GALR2 agonist – GALR2 receptor agonists, primary screen, cell-based | Galanin receptor type 2 (Homo sapiens), O43603 | GALR2-expressing cells, agonist activation read-out | activation, %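 (tested at 5 µM)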 | 0.48% of 140,000 active | AID 803, 2007;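 active = above mean plus 3 SD of all compounds, about 5% in these data, not always enough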;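 note: 0% = vehicle buffer wells and 100% = reference agonist at full effect; tested in CHO reporter cells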
Target sequence (O43603 whole entry, looked up): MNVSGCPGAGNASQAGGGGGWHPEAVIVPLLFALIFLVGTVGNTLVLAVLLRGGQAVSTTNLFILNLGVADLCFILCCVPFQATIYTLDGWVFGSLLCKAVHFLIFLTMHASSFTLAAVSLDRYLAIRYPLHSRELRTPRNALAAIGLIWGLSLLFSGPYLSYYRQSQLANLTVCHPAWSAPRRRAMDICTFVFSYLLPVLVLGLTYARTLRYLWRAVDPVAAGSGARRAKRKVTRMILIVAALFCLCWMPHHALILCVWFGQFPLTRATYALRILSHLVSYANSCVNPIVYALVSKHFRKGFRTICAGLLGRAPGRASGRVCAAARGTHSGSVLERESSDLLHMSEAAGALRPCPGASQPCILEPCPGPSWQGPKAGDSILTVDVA
Insulin prom inh – inhibitors of insulin promoter-driven GFP, primary screen, imaging, TRM-6 cells (human fetal islet line), eGFP reporter, cell count; reporter expression induced with tamoxifen; inhibition, % at 2 µM; 0.9% of 130,000 active; AID 1273, 2008;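 active = inhibition above the mean plus 3 SD, with well images judged a real hit on visual review, cut at about 60% in these data, passing the limit was not always enough; inconclusive = inhibition over the cutoff but images rejected on review; inactive = inhibition not above the cutoff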
PKD1 kinase inh – inhibitors of human PKD1 kinase, biochemical, fluorescence polarization; PKD1 kinase fluorescence polarization assay; inhibition, %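 (about 10 µM by stock and volumes)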; 0.056% of 200,000 active; AID 797, 2007;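 active = inhibition of 50% or more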;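 note: controls were vehicle for no effect and a reference inhibitor for full effect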
HSV augment – enhancers of HSV replication in host cells, fold increase, host cell viability. HSV replication augmentation in cells. maximum fold increase. 0.005% of 220,000 active. AID 1956, 2009;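 active = peak rise of 1.5-fold or more in the series; inconclusive = self-fluorescent or not available for retest; tested in PC3 cells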;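 note: first round at 10 µM; read as green reporter fluorescence; hits show the peak of a series up to 25 µM; 1 = signal of infected wells without compound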
Insulin prom inh cell count – further read-out of Insulin prom inh, marked with its call; normalized cell count, %; measured here: cell count, toxicity; reference of the scale not given here;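 cells exposed to compound for 48 h; stained nuclei by imaging scaled within each plate; lower means fewer cells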
HSV augment primary fold – further read-out of HSV augment, marked with its call; fold increase; compound at 10 µM; measured here: primary screen fold increase 10 uM; tested in PC3 cells;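 GFP signal in the first replicate; 1 = infected wells without compound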
* hit, by the source's call; i = inactive; u = inconclusive; x = no result given.

molecule | RGS16-Gao HTS | GALR2 agonist | Insulin prom inh | Insulin prom inh cell count | PKD1 kinase inh | HSV augment | HSV augment primary fold
O=C(C(NS(=O)(=O)c1cccc2nsnc12)c1ccccc1)N1CCN(c2ccccc2)CC1 (stereo unspecified) | 99.7 | -0.1 | x | x | 9.1 | i | 1.04
Cc1cc2cc(CN(Cc3cccs3)C(=S)NCC3CCCO3)c(=O)[nH]c2cc1C (stereo unspecified) | 92.8 | -1.0 | -7.9 | 116.9 | 11.3 | i | 0.93
Cc1cc(C)n2nc(S(=O)(=O)NC(C)(C)C)nc2n1 | 99.1 | x | 5.0 | 136.9 | 1.9 | i | 0.96
Cc1cc(NC(=O)CSc2cn(C)c3ccccc23)no1 | 97.0 | -6.0 | x | x | 6.0 | i | 0.72
C#CCOCCOCCOCCNc1nc(N2CCN(C(=O)[C@H]([C@@H](C)CC)n3cc([C@@H](N)CC(C)C)nn3)CC2)nc(N2CCN(C(=O)[C@H](Cc3cc4ccccc4[nH]3)n3cc([C@@H](N)Cc4ccc(O)cc4)nn3)CC2)n1 | 95.8 | x | x | x | 5.8 | x | x
OC1(C(F)(F)F)CC(c2ccc3ccccc3c2)=NO1 (stereo unspecified) | 92.5 | x | x | x | x | i | 1.08
CC(C)c1ccc2c(c1)C(=O)NC(C)(C)C2 | 102.8 | -0.9 | x | x | 16.5 | i | 0.94
COc1ccc(S(=O)(=O)N(CC(=O)NCCCN(C)C)c2ccc(C)cc2)cc1OC | 98.5 | -1.5 | -42.9 | 64.8 | -8.0 | i | 0.917
Nc1nc(CSc2nc3ccccc3s2)nc(N2CCCCC2)n1 | 100.0 | -0.1 | 38.9 | 109.5 | 4.7 | i | 0.88
Cc1ccnc(NC(=O)CCC(=O)N(CC(=O)NC2CCCCC2)C2CCCC2)c1 | 96.7 | x | x | x | x | i | 0.96
C=C(C)COc1ccc2c(C)c(C)c(=O)oc2c1OCC(=C)C | 116.2 | -1.8 | 25.0 | 126.5 | -2.7 | i | 0.82
CC(C)Sc1nc2ccccc2n1CC(=O)O | 103.2 | x | x | x | -6.1 | i | 0.87
c1ccc(CNc2ncnc3c2cnn3-c2ccccc2)cc1 | 84.8 | 0.2 | x | x | 1.4 | i | 0.71
CCOc1ccc(N2C(=O)CC(NCCNc3ccc([N+](=O)[O-])cn3)C2=O)cc1 (stereo unspecified) | 98.2 | x | -17.6 | 48.5 | 2.1 | i | 1.16
S=c1nccc(-c2ccc(Cl)cc2)[nH]1 | 94.2 | x | x | x | x | i | 1.14
O=C(NC1c2ccccc2-c2ccccc21)N1CCCCC1 | 102.1 | -2.0 | 45.7 | 92.8 | 6.4 | i | 1.03
CC(=O)N1CCN(Cc2nc3cc(NC(=O)NC4CCCCC4)ccc3n2C)CC1 | 103.0 | x | x | x | -4.7 | i | 0.91
CC1(C(=O)NC2CCCC2)CCC(=O)N1Cc1ccc2c(c1)OCO2 (stereo unspecified) | 82.9 | -3.7 | x | x | -20.5 | i | 0.93
CC1=C(C(=O)OCc2ccc3c(c2)OCO3)C(c2ccc(Cl)cc2)NC(=O)N1 (stereo unspecified) | 68.9 | -1.2 | x | x | -9.5 | i | 0.54
O=C(Nc1ccc2c(c1)nc1n2CCCCC1)c1cc(S(=O)(=O)N2CCOCC2)ccc1Cl | 86.3 | -1.9 | x | x | -5.2 | i | 0.76
Cc1cc(Cl)ccc1C(=O)C1CCCN(C(=O)c2ccoc2)C1 (stereo unspecified) | 96.8 | x | x | x | -4.8 | i | 1.04
O=C(Cn1c(=O)oc2ccccc21)N1CCN(c2ccc(N3CCOCC3)nn2)CC1 | 101.4 | -0.3 | x | x | -6.8 | i | 0.97
Brc1ccccc1OCCOCCOc1cccc2cccnc12 | 103.9 | -0.5 | -11.8 | 75.5 | -9.6 | i | 0.91
Cc1[nH]n(-c2ccc(Cl)cc2)c(=O)c1C=NC12CN3CN(CN(C3)C1)C2 | 166.8 | 0.8 | x | x | -3.3 | i | 1.08
Cc1c(Br)c(=O)oc2c(Br)c(O)ccc12 | 102.8 | x | x | x | 1.6 | i | 0.98
CCC(=O)Oc1ccc(C(=O)Nc2ccc3c(c2)OCO3)cc1 | 103.5 | x | x | x | 0.5 | i | 0.92
Cc1cc(=O)[nH]c(N/N=C/c2cc(C)n(-c3ccccc3)c2C)n1 | 104.5 | x | x | x | x | i | 0.91
Cc1ccn(C(CC(=O)c2ccc(Br)cc2)C(=O)O)n1 (stereo unspecified) | 101.7 | 0.4 | -39.3 | 97.4 | -8.2 | i | 0.9
Cc1cc([N+](=O)[O-])nn1CC(=O)N1CCOCC1 | 101.0 | x | x | x | -8.6 | i | 0.98
Cc1ccc(NC(=S)Nc2cccc(S(=O)(=O)Nc3c(C)n(C)n(-c4ccccc4)c3=O)c2)cc1 | 104.1 | x | -83.3 | 96.4 | 2.1 | i | 0.93
COc1ccc(NC(=S)Nc2ccc3nsnc3c2)cc1 | 114.7 | -2.1 | 6.7 | 153.7 | -5.1 | i | 0.66
Cc1ccc(Oc2ncnc3sccc23)cc1 | 103.3 | 0.3 | -16.7 | 86.4 | 0.3 | i | 1.02
Cc1cccc(OCCC(=O)OCC(=O)N2CCc3ccccc32)c1 | 105.9 | -2.8 | 22.6 | 130.5 | -3.8 | i | 0.94
Cc1ccc(S(=O)(=O)Nc2ccc3c4c(cccc24)CC3)c(C)c1 | x | -0.4 | -20.9 | 119.3 | -0.6 | i | 0.83
OCCC1CN(Cc2cn[nH]c2C2CCCCC2)CCN1C1CCCCC1 (stereo unspecified) | 104.4 | x | 47.8 | 57.0 | -2.4 | i | 1.07
Cc1cc(-c2nn(-c3ccccc3F)cc2CNCCc2cnccn2)c(C)s1 | 117.7 | x | x | x | -8.2 | i | 0.98
CN(C)S(=O)(=O)N1CCN(c2ccc([N+](=O)[O-])c(N3CCCCC3)c2)CC1 | 99.7 | x | x | x | 7.4 | i | 0.91
O=C1/C(=C\c2ccc(O)c(O)c2)C(c2ccccc2)=NN1c1ccccc1 | 64.5 | x | 11.1 | 54.4 | 8.6 | i | 0.88
CN(C)C(=S)SCCn1c(N)nc(N(C)C)nc1=O | 89.6 | x | x | x | x | i | 0.89
COc1ccc(Cl)cc1C(=O)Nc1ccccc1N1CCN(C(=O)C(C)C)CC1 | 101.7 | 0.3 | -61.5 | 83.8 | -11.3 | i | 0.96
COc1cccc(NC(=O)N2CCCC2C(=O)NCc2ccccc2)c1 (stereo unspecified) | 106.3 | x | 35.7 | 81.9 | -2.2 | i | 0.94
c1ccc(-c2n[nH]c(-c3ccccn3)n2)cc1 | 100.1 | -2.8 | 0.0 | 87.8 | -0.4 | i | 0.97
COc1ccc(CNC(=O)OCCN2CCN(S(=O)(=O)c3ccc(C)cc3)CCC2=O)cc1 | 84.6 | 0.0 | 14.3 | 99.7 | 1.6 | i | 0.87
CCc1ccccc1Nc1nc2ccccc2n1C(C)C | 100.6 | x | x | x | 8.6 | i | 0.96
Cc1cc(C)c(NC(=O)CN2C(=O)NC(CCc3ccccc3)C2=O)c(C)c1 (stereo unspecified) | 99.8 | x | 10.5 | 102.4 | -0.2 | i | 1.02
COc1ccc(/C=N/S(=O)(=O)CCc2ccccc2)c(OC)c1 | 99.0 | -0.7 | 10.0 | 115.7 | 0.4 | i | 1
CC(=O)Oc1ccc2ccc(=O)oc2c1 | 100.0 | x | x | x | 15.6 | i | 1.16
CCOC(=O)C1=C(CN2CCCCCC2)NC(=O)NC1c1ccc2c(c1)OCO2 (stereo unspecified) | 89.5 | x | -136.4 | 51.0 | -5.8 | i | 0.99
O=C1C(=O)N(CCc2c[nH]c3ccccc23)C(c2cccnc2)/C1=C(/O)c1ccccc1 (stereo unspecified) | 102.8 | x | 0.0 | 86.0 | -11.0 | i | 1.12
O=C(O)C1=C[C@H](c2ccc(F)cc2)C[C@H](OCCCCO)O1 | 101.4 | x | x | x | x | i | 0.78

Next compounds follow:
molecule | RGS16-Gao HTS | GALR2 agonist | Insulin prom inh | Insulin prom inh cell count | PKD1 kinase inh | HSV augment | HSV augment primary fold
O=C(N/N=C/C(Br)=C/c1ccccc1)c1cccs1 | 97.4 | x | x | x | -7.5 | i | 0.86
Cc1nc(C)c(C(=O)NNS(=O)(=O)c2ccc([N+](=O)[O-])cc2)s1 | 106.0 | -1.2 | -81.2 | 107.3 | -7.1 | i | 0.94
CC(C)(C)c1ccc(C(=O)Nc2ccc(NC(=O)c3ccco3)cc2)cc1 | 106.5 | 0.5 | -18.4 | 198.8 | -6.4 | i | 0.67
Cc1nn(-c2ccccc2)c(Cl)c1C(=O)NCCCCNC(=O)c1c(C)nn(-c2ccccc2)c1Cl | 97.3 | -1.8 | -492.9 | 61.3 | -4.8 | i | 0.983
CCCCCCNc1c([N+](=O)[O-])c(=O)sc2ccccc12 | 100.4 | x | x | x | -3.4 | i | 0.94
COc1ccc(C(=O)Oc2ccc(=O)n(-c3ccccc3)n2)cc1 | 102.8 | -2.7 | 6.0 | 84.8 | 1.2 | i | 0.7
O=C(Nc1nnc(C2=COCCO2)o1)c1ccc(Cl)cc1 | 107.3 | -1.1 | x | x | -6.5 | i | 0.84
COCCNC(=O)c1onc(CSc2ccc(C)c(C)c2)c1C(=O)O | 98.5 | -2.9 | -27.0 | 147.2 | -5.2 | i | 0.88
Cc1c(NC(=O)CN2CCC(C(N)=O)CC2)cccc1[N+](=O)[O-] | 101.7 | x | 28.6 | 172.3 | -3.1 | x | x
N#CC(C#N)=c1ccc2c(c1)N1C3=C(CCCC3)CC3CCCCC31N=2 (stereo unspecified) | 96.2 | -0.3 | x | x | -16.1 | i | 0.88

5 records picked at random from those above, as already listed:
molecule | RGS16-Gao HTS | GALR2 agonist | Insulin prom inh | Insulin prom inh cell count | PKD1 kinase inh | HSV augment | HSV augment primary fold
Cc1c(NC(=O)CN2CCC(C(N)=O)CC2)cccc1[N+](=O)[O-] | 101.7 | x | 28.6 | 172.3 | -3.1 | x | x
O=C(N/N=C/C(Br)=C/c1ccccc1)c1cccs1 | 97.4 | x | x | x | -7.5 | i | 0.86
Cc1nn(-c2ccccc2)c(Cl)c1C(=O)NCCCCNC(=O)c1c(C)nn(-c2ccccc2)c1Cl | 97.3 | -1.8 | -492.9 | 61.3 | -4.8 | i | 0.983
N#CC(C#N)=c1ccc2c(c1)N1C3=C(CCCC3)CC3CCCCC31N=2 (stereo unspecified) | 96.2 | -0.3 | x | x | -16.1 | i | 0.88
O=C(Nc1nnc(C2=COCCO2)o1)c1ccc(Cl)cc1 | 107.3 | -1.1 | x | x | -6.5 | i | 0.84

Next section.
molecule | RGS16-Gao HTS | GALR2 agonist | Insulin prom inh | Insulin prom inh cell count | PKD1 kinase inh | HSV augment | HSV augment primary fold
CCCOc1ccc(-c2cc(C(=O)NCC3CCCO3)c3ccccc3n2)cc1 (stereo unspecified) | 100.0 | x | 42.9 | 126.3 | 5.6 | i | 1.02
COCCn1c(N)c(C(=O)NCC2CCCO2)c2nc3ccccc3nc21 (stereo unspecified) | 100.5 | 5.0 | x | x | -3.2 | i | 0.84
Cc1ccc(-c2nnn(CC(=O)N(CCO)C(C(=O)NC(C)(C)C)c3ccncc3)n2)cc1 (stereo unspecified) | 94.2 | -1.4 | 26.9 | 81.1 | -2.2 | i | 1.07
Cc1ccc(CNC(=O)C2CCN(S(=O)(=O)c3c(C)noc3C)CC2)cc1 | 98.2 | -0.8 | -75.9 | 98.8 | -7.6 | i | 1.02
CCOC(=O)c1c(N/N=C/c2ccncc2)n[nH]c1C | 96.3 | -0.8 | -66.7 | 47.9 | 0.1 | i | 0.98
O=C(N/N=C/c1cc([N+](=O)[O-])ccc1N1CCNCC1)c1ccc([N+](=O)[O-])cc1 | 98.5 | 0.0 | -54.5 | 59.8 | -7.2 | i | 0.62
S=C(c1cn(CCOc2ccccc2)c2ccccc12)N1CCCC1 | 108.6 | -0.2 | 17.4 | 53.9 | -10.3 | u | x
N#CCSc1nnc2ccc3ccccc3n12 | 103.5 | -2.7 | -56.2 | 23.7 | -10.3 | i | 0.8
O=C(CCC1CCCN(C(=O)C2CCCC2)C1)NCc1ccc(F)c(F)c1 (stereo unspecified) | 112.2 | x | -78.3 | 110.0 | -4.3 | i | 1.02
O=S(=O)(NCCN1CCOCC1)c1ccc(Cl)s1 | 97.0 | x | x | x | 3.7 | i | 0.91
